Rango release inh: qHTS Assay for Inhibitors of RanGTP induced Rango (Ran-regulated importin-beta cargo) - Importin beta complex dissociation; Potency, µM (doses to about 46.1 µM), without a hit: at the top dose activity change, negative = inhibition; Biochemical FRET Rango-importin beta, RanGTP-induced dissociation; Snurportin-1 (Homo sapiens) + GTP-binding nuclear protein Ran (Homo sapiens) + Importin …; actives 0.071% (n = 340,000); active means falling FRET ratio curve, often poorly fitted, with flat reads before Ran was added; inconclusive means other falling curves, or compound fluorescence or quenching; inactive means flat or rising ratio curve;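 further: potency means the concentration at half of the fitted maximal effect; % of control where 0% means no effect; nearly all actives have a fitted effect of over 45% in size; -100% = wells without RanGTP and RCC1; the record marks most hits as doubtful in a second field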
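Two FRET readings bracket the reaction: one 5 min after compound meets Rango–importin beta, another 45 min after RanGTP-RCC1 (0.6 uM Ran, 0.2 uM RCC1, 2 mM GTP) is added. Only the second defines inhibition.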
Rango complex inh: qHTS Assay for Inhibitors of Rango (Ran-regulated importin-beta cargo) - Importin beta complex formation. Importin subunit beta-1 (Homo sapiens), Q14974. Rango CFP/YFP FRET sensor + importin beta, 45 min. Potency, µM (top dose mostly 92.2 µM), without a hit: at the top dose inhibition of complex formation. actives 0.031% (n = 340,000); active = rising FRET ratio curve, often small or poorly fitted; inconclusive = mostly compound fluorescence or quenching in the first reads; inactive = flat curves in all reads;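 further: potency means the concentration at half of the fitted maximal effect; 0% = DMSO wells and 100% = buffer wells lacking importin beta; nearly all actives have a fitted effect of over 15% in size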
Target sequence (Q14974 whole entry, looked up): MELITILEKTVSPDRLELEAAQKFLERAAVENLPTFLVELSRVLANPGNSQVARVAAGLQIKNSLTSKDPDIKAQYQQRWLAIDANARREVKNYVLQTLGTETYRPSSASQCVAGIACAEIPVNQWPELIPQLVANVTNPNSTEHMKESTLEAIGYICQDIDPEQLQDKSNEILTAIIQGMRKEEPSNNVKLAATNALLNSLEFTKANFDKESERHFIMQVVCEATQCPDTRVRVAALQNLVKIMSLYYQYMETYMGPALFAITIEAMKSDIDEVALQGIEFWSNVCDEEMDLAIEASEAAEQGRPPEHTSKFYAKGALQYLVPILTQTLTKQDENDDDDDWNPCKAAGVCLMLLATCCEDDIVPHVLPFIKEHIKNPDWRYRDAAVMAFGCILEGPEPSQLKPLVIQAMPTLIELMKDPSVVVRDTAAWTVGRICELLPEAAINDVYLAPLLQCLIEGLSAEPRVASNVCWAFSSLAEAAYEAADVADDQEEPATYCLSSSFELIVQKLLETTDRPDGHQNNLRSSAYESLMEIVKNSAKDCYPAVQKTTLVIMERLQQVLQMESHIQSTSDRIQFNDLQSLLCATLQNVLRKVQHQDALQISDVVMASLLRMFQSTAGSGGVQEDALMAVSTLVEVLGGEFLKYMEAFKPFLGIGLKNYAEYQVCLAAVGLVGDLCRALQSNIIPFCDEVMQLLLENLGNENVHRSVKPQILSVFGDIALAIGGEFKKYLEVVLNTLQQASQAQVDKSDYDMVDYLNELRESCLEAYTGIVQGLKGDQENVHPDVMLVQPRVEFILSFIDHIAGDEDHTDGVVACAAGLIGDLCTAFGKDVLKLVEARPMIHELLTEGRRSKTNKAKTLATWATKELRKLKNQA
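FRET biosensor Rango (snurportin 1 IBB between N-terminal EYFP and C-terminal Cerulean), 50 nM in PBS/1 mM DTT/0.02% Tween-20/0.1% BSA, preincubated 5 min RT with compound; 0.125 microM importin beta added, 45 min RT, CFP/YFP FRET ratio read.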
miR-21 FLuc: qHTS Assay for Modulators of miRNAs and/orActivators of miR-21 | HeLa miR-21 FLuc reporter, luciferase, 48 h | Potency, µM (highest dose often 38.3 µM), inactives show at the top dose reporter change, positive = more light | 340,000 tested, under 10 active | AID 2288, 2010; active = well fitted rising curve with a large enough effect; inconclusive = small, poorly fitted or top-dose-only effect; inactive = no such curve, though single readings can be large or run the other way;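 further: % of control where 0% means no effect; miR-21 action dims this reporter so a rising signal means less miR-21 action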
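Compounds were titrated across several concentrations (up to approximately 40 uM) and incubated 48 hours with HeLa miR-21-FLuc reporter cells (miR-21 target sequence downstream of FLuc, endogenous miR-21). Readout was firefly luciferase luminescence after lytic detection reagent.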
GLA inh pH 4.5: qHTS Assay for Inhibitors of Human alpha-Galactosidase at pH 4.5 | purified enzyme, 4-MU-alpha-Gal fluorescence, pH 4.5 | Alpha-galactosidase A (Homo sapiens), P06280 | 230,000 tested, under 10 active | activity change, negative = inhibition, % at 105 µM; inconclusive = small, poorly fitted or top-dose-only inhibition, or a rising curve; inactive = flat fitted curve, though single readings scatter; no compound was filed as active;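 further: 0% = full activity with enzyme and -100% = basal without enzyme; dose as in the result columns while the protocol names 77 µM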
* marks the source's active call; other numbers are inactive results; ? = inconclusive; / = not tested or not shown. An excerpt. The share of hits here may be higher or lower than overall.

Compound	Rango release inh	Rango complex inh	miR-21 FLuc	GLA inh pH 4.5
Cc1ccc(Nc2cc(C)nc3ncnn23)c(Cl)c1	13%	0.1%	-16%	8
C=CCC(=O)N1CCCC(C(=O)c2ccc(Cl)cc2)C1 (centres undefined)	17%	-4.2%	0%	/
COC(=O)c1cc(C)sc1NC(=O)c1ccco1	1%	1.2%	0%	/
COc1cccc(-n2c(=O)c3ccccc3n(CC(=O)NCC3CCCO3)c2=O)c1 (centres undefined)	10%	3.6%	0%	/
CC(=O)Nc1cc(-n2cnnn2)ccc1C	2%	0.0%	-6%	-18
CC1CC(=S)Nc2ccccc2S1 (centres undefined)	-4%	-5.4%	-1%	4
Nc1c(/C=C2/C=CC(=O)C(O)=C2)c(=O)nc2sc(CC(=O)N3CCOCC3)nn12	?	?	/	/
O=C(CNC(=O)Cc1ccc(Cl)cc1)NCc1ccco1	-9%	-1.7%	1%	-2
CCCCN=C1C([N+](=O)[O-])=CC=C2C1=NC1(CCCCC1)N2O	13%	8.3%	0%	-14
CCOC(=O)C1CCCN(c2c(N3CCC(N4CCCCC4)CC3)c(=O)c2=O)C1 (centres undefined)	37%	-0.5%	-4%	-11
O=C(O)CC1=C(Nc2ccccc2)C(=O)N(c2ccccc2)C1c1ccc(Br)cc1 (centres undefined)	12%	-5.6%	-32%	5
CCOc1c(Cl)cc(CNCC(C)C)cc1Cl	4%	-4.8%	/	/
CCn1c(CCNC(=O)c2ccc(OC)cc2)nnc1SCc1ccc(Cl)cc1Cl	-5%	-0.9%	-1%	-2
O=C(Cc1ncc(C(F)(F)F)cc1Cl)NCCc1ccccc1	6%	-0.1%	-2%	6
Cc1ccc(-c2ccc(SCC(=O)Nc3nonc3C)nn2)cc1	6%	-6.0%	-20%	-3
COc1ccc(-n2c(SCC(=O)NCCC(C)C)nc3ccsc3c2=O)cc1	-9%	-0.6%	-3%	6
C/C(=N\NC(=O)CSc1nc(C)cc(C)n1)c1cccc([N+](=O)[O-])c1	1%	0.1%	0%	5
Cc1ccccc1N1CCN(C(=O)c2cc(C3CC3)nn2-c2ccccc2)CC1	-1%	2.2%	/	/
O=C(COC(=O)C1CC1)NCc1ccccc1Cl	10%	-1.8%	-9%	6
CCSc1nc2ccccc2n1CC(=O)O	2%	-0.3%	-2%	3
CN1CCC(=NNC(=O)COc2ccc(Cl)cc2)CC1	2%	-3.6%	2%	2
O=S(=O)(c1ccc(Cl)c(Cl)c1)N1CCc2nc3ccccc3n2CC1	1%	-3.6%	-6%	1
CCOc1c2ccc(C(=O)NCCCCc3ccccc3)cc2nn1C	11%	-0.2%	-11%	6
O=C(CSc1nc(-c2ccco2)cc(C(F)(F)F)n1)Nc1cccnc1	7%	0.6%	15%	-4
Cc1ccc(NC(=S)NCc2ccc(F)cc2)c(C)c1	-8%	-3.4%	-4%	/
OCC1(CCOc2ccccc2)CCN(Cc2cc(Cl)ccc2O)CC1	-3%	-0.9%	8%	/
CCCn1c(SCC(=O)N(CC)CC)nnc1-c1ccncc1	-1%	-1.3%	3%	-4
C/C=C(/C)C(=O)Nc1cccc(C2=NOC3(C2)C[C@@H](C(N)=O)N(C(=O)CC(c2ccccc2)c2ccccc2)C3)c1 (some centres undefined)	5%	-2.1%	20%	-3
Cc1nc2ncccn2c1-c1csc(NCc2ccco2)n1	-12%	-3.5%	0%	0
COc1ccc(N(CC(=O)NCCc2ccccc2)C(=O)c2csnn2)cc1OC	1%	-0.9%	7%	/
C/C(=N\NC(=O)c1ccc(N2CCCC2=O)cc1)c1ccccc1	-29%	0.2%	-6%	/
O=C(CCNc1ccccc1)c1ccc2c(c1)OCO2	1%	-0.5%	-54%	7
Cc1cccc(C(C)(C)C)c1OCCOCCN1CCCC1	-7%	0.1%	-4%	6
CCS(=O)(=O)c1ccc2oc(SCC(=O)NC34CC5CC(CC(C5)C3)C4)nc2c1	-8%	0.4%	9%	-2
O=C1C=C(Nc2ccccc2C(=O)O)c2ccccc2C1=O	-7%	2.7%	-23%	1
Cc1ccc(NC(=O)Nc2ccc3c(c2)OCO3)nc1	0%	-2.0%	-70%	4
CN(C)S(=O)(=O)N1CCC(Oc2cccc(C(=O)NCCCC3CCCC3)c2)CC1	-21%	?	18%	/
CCCC(=O)Nc1ccc(NC(=O)c2ccccn2)cn1	-9%	-0.2%	-13%	2
CCc1nnc(SCC(=O)Nc2ccc(NC(C)=O)cc2)n1-n1cccc1	?	5.3%	/	/
Oc1ccc(N2Cc3ccccc3C2)cc1	-8%	-3.9%	-19%	/
O=[N+]([O-])c1ccc(Cc2ccccn2)cc1	-2%	0.3%	/	/
COCCCNc1oc(/C=C/c2ccccc2)nc1C#N	?	?	-62%	/
COCCCn1c(=O)c2sccc2n2c(CCCC(=O)NCc3ccc(OC)cc3)nnc12	1%	2.3%	0%	/
O=C1NCCN1Cc1ccc(F)cc1	15%	5.4%	-3%	-1
CC1(C)SC[C@H](C(=O)Nc2cccc(Cl)c2)N1C=O	-10%	0.4%	0%	-5
CCOc1ccc(NS(=O)(=O)c2ccc3[nH]c(=O)[nH]c3c2)cc1	11%	-0.2%	0%	/
O=C1c2ccccc2C(=O)N1CCCc1nc(-c2ccccc2)no1	-9%	-0.5%	-11%	-17
COc1ccc(C(C)=O)cc1COC(=O)c1cccnc1Cl	-8%	1.1%	4%	/
Cc1nc2cc(-c3ccccc3)sc2c(=O)n1N	11%	-0.2%	19%	13
COc1ccc(OC)c2c1sc(=NC(=O)c1ccco1)n2C	-7%	0.0%	-13%	0

Molecules shown so far that have a nitro group on carbon:
Compound	Rango release inh	Rango complex inh	miR-21 FLuc	GLA inh pH 4.5
CCCCN=C1C([N+](=O)[O-])=CC=C2C1=NC1(CCCCC1)N2O	13%	8.3%	0%	-14
C/C(=N\NC(=O)CSc1nc(C)cc(C)n1)c1cccc([N+](=O)[O-])c1	1%	0.1%	0%	5
O=[N+]([O-])c1ccc(Cc2ccccn2)cc1	-2%	0.3%	/	/

Next section
Compound	Rango release inh	Rango complex inh	miR-21 FLuc	GLA inh pH 4.5
CCOCCOC(=O)C1=C(C)NC(=O)NC1c1ccc2c(c1)OCO2 (centres undefined)	1%	0.7%	-3%	/
Cc1ccc(N2CCN(S(=O)(=O)c3cccs3)CC2C)cc1 (centres undefined)	-10%	0.0%	9%	/
C=CCOC(=O)C1=C(C)Nc2[nH]c(=O)[nH]c(=O)c2C1c1cccc(OC)c1 (centres undefined)	/	/	-18%	4
O=C(NN1C(=O)NC2(CCCCC2)C1=O)c1cccs1	?	-1.1%	/	/
Fc1ccc(-c2cn3cc(C(F)(F)F)cc(Cl)c3n2)cc1	25%	1.5%	-44%	-20
Cc1ccc(S(=O)(=O)NC(CC(=O)N2CCc3ccccc32)c2ccco2)cc1 (centres undefined)	-19%	-1.5%	-6%	-2
CCOC(=O)c1c(NC(=O)COC(=O)CCOc2ccc(OCC)cc2)sc(C(=O)N(C)C)c1C	26%	0.5%	/	/
COc1ccccc1-c1nnc(NC(=O)CSc2nncn2C)s1	-16%	-3.6%	-12%	2
CC1Cc2ccccc2N1S(=O)(=O)c1cnc(Cl)c(Br)c1 (centres undefined)	33%	-5.1%	-2%	-4
Cn1cc(C(=O)NC2CCCCCC2)c(=O)c2cc(S(=O)(=O)N3CCCC3)ccc21	11%	-0.3%	-1%	-9
CC1CCN(Cc2c(C(=O)N/N=C/c3ccccc3O)nnn2-c2nonc2N)CC1	-2%	3.2%	?	/
CCS(=O)(=O)NCCc1ccc(OC)c(OC)c1	-4%	4.5%	-5%	-10
COc1ccccc1N1CC(C(=O)OC(C)C(=O)N2CCCc3ccccc32)CC1=O (centres undefined)	-5%	-0.1%	-9%	1
O=C(NCc1ccc2c(c1)OCO2)c1ccc(S(=O)(=O)NCC2CCCO2)cc1 (centres undefined)	2%	-0.6%	-2%	-9
O=C(NCC(=O)N1CCCC(C(F)(F)F)C1)c1cccs1 (centres undefined)	3%	-2.3%	/	/
Cc1ccccc1-n1c(=O)c2ccccc2n2nnnc12	7%	0.0%	-7%	-6
CCN1CCN(C(=O)CN(c2cccc(Br)c2)S(=O)(=O)c2ccccc2)CC1	-18%	0.8%	-4%	4
O=C(NCCC1CCCCN1S(=O)(=O)c1ccc(F)cc1)C(=O)NC1CCCC1 (centres undefined)	?	-2.5%	/	/
Clc1ccc(C[n+]2cc(-c3ccccc3)n3c2CCCCC3)c(Cl)c1	-8%	0.0%	?	3
COc1ccc(Nc2nc(-c3ccccc3)nc3ccccc23)c(OC)c1	16%	?	-3%	-9
O=C(COn1nnc2ccc(C(F)(F)F)cc21)Nc1c(Cl)cccc1Cl	0%	-4.5%	0%	3
O=C1CC(c2ccc(O)cc2)Oc2ccccc21 (centres undefined)	0%	3.6%	/	-1
CCOC(=O)C1CCN(C(=O)CCN2C(=O)C3C4C=CC(C4)C3C2=O)CC1 (centres undefined)	1%	0.7%	1%	9
CCCCOC(=O)Nc1ccc(OC)cc1S(=O)(=O)N1CCOCC1	-1%	-5.2%	-3%	1
O=C(NC1CCCC1)C(c1ccsc1)N(CCc1ccccc1)C(=O)Cc1cccs1 (centres undefined)	11%	-0.5%	-5%	-4
CCN(CC(=O)Nc1c(F)cccc1F)C(=O)COc1ccc2c(c1)CCC2	19%	5.2%	/	/
C/C=C/C(=O)OCC(=O)Nc1ccc(F)cc1Cl	14%	2.6%	1%	9
O=C1OCC/C1=C\c1ccccc1	7%	0.0%	0%	0
CC(C)(C)C1CCC(=NNC(=O)C(=O)NCc2cccnc2)CC1 (centres undefined)	-28%	-3.1%	6%	0
Cc1nnc(N2C(=O)C(=O)/C(=C(/O)c3ccc4c(c3)OCCO4)C2c2ccc(F)cc2)s1 (centres undefined)	?	?	-7%	/
Cc1ccc(OC(=O)c2cccc([N+](=O)[O-])c2)c(-n2nc3ccccc3n2)c1	-9%	3.2%	-17%	3
CC(=O)c1ccc(Sc2ccccn2)c([N+](=O)[O-])c1	-21%	1.7%	-4%	-8
CCS(=O)(=O)N1CCC(C(=O)NCc2ccccn2)CC1	0%	-1.2%	0%	-5
CSc1nc(=S)n(Cc2ccccc2)c(C)c1C(C)=O	4%	-1.7%	-13%	2
NCCCC[C@H]1CNC(=S)N1CC1CCCCC1	25%	7.8%	-2%	3
O=C(CSc1nncc2ccccc12)Nc1cccc(C(=O)O)c1	-2%	-0.9%	-35%	3
CC(C)Cc1n[nH]c(=O)c2c1nnn2Cc1ccccc1F	-11%	-2.3%	-6%	/
Cc1cc(=O)n2nc(N3CCC(C(=O)NCCc4ccc(Cl)cc4)CC3)sc2n1	0%	-0.5%	-4%	/
COc1cc(C=O)ccc1OCCCOc1ccc([N+](=O)[O-])cc1	3%	-1.2%	8%	3
CN(C)C(CNC(=O)c1cccc(S(=O)(=O)N(C)C)c1)c1ccccc1 (centres undefined)	8%	1.2%	-4%	-5
CCC(=O)N1CCN(c2ccccc2NC(=O)Cc2ccc(Cl)cc2)CC1	18%	1.7%	-3%	-8
Fc1ccc(Nc2ccnc(Nc3ccc(F)cc3)n2)cc1	8%	-2.2%	-49%	3
O=C(COC(=O)CCC(=O)c1cccs1)Nc1ccc(Cl)cn1	-18%	1.5%	-9%	-3

Assay outcomes as filed in PubChem.
